# NS1 inh = qHTS Assay for Inhibitors of Influenza NS1 Protein Function; S. cerevisiae slowed by influenza A NS1, growth recovery by OD600; Potency, µM (top dose mostly 46.1 µM), inactives show top-dose activity, positive = more growth; 270,000 compounds, 0.4% hits; AID 2326, 2010; further: actives are rising curves; nearly all actives have a fitted effect of over 50% in size
#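 S. cerevisiae expressing influenza A NS1, grown in glucose, washed, then diluted 1:100 into pH 6.0 -URA galactose medium with 23 nl compound. Growth recovery read as OD600; NS1-free strain serves as control.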
# Marburg entry inh = qHTS for inhibitors of binding or entry into cells for Marburg Virus | Marburg virus pseudotyped entry inhibition, cell reporter; control for the full effect not named in the record; about a third of the inactives were read at about 46 µM | 300,000 compounds, 1.8% hits | Potency, µM (titrated, usually from 37.8 µM), for the others: top-dose activity change, negative = inhibition, most hits filed as inhibitors; active = well fitted inhibition curve with a large enough effect; inconclusive = small, poorly fitted or top-dose-only effect, or effect the other way; inactive = flat fitted curve, though single readings scatter; tested in HEK293 cells; about a fifth of its hits are not listed in these tables; further: on the % scale 0 is the no-effect control and ±100 the full control effect; luciferase read-out
# SARS PLP yeast = qHTS of Yeast-based Assay for SARS-CoV PLP | 330,000 compounds, 0.19% hits | S. cerevisiae expressing SARS-CoV PLpro, growth rescue; control for the full effect not named in the record | Potency, µM (titrated, usually from 32.9 µM), for the others: at the highest dose activity, positive = growth rescue; further: 0% is about no effect; nearly all actives have a fitted effect of over 55% in size; growth read by luminescence after 48 h
# RE007 growth inh = qHTS Assay for Inhibitors of the HIV-1 protein Vpr | S. pombe RE007 Vpr strain, BacTiter-Glo ATP luminescence, 24 h; control for the full effect not named in the record | Potency, µM (doses to about 92.2 µM), without a hit: at the highest dose activity change, negative = less growth | 360,000 compounds, 0.21% hits | AID 651644, 2012; active = well fitted falling curve with a large enough effect; inconclusive = small, poorly fitted or top-dose-only effect; inactive = no such curve, though single readings can be large or run the other way;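 further: on the % scale 0 is the no-effect control and ±100 the full control effect; nearly all actives have a fitted effect of over 50% in size; the assay follows cell death caused by Vpr and the record does not say whether a fall means rescue or toxicity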
#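 Fission yeast strain RE007, carrying one chromosomally integrated HIV-1 vpr copy, was seeded at OD 0.01 in PMG+AL medium with 23 nL pinned compound. After 24 h at 30 °C and 99% humidity, viability was read by BacTiter-Glo luminescence.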
# Lassa entry inh = qHTS for Inhibitors of binding or entry into cells for Lassa Virus; Lassa virus pseudotype entry inhibition, cell reporter; control for the full effect not named in the record; Potency, µM (highest dose often 37.9 µM), inactives show at the top dose activity change, negative = inhibition, usual class: inhibitors; 300,000 compounds, 1.2% hits; AID 540256, 2011; active means well fitted inhibition curve with a large enough effect; inconclusive means small, poorly fitted or top-dose-only effect, or effect the other way; inactive means flat fitted curve, though single readings scatter; tested in HEK293 cells; further: on the % scale 0 is the no-effect control and ±100 the full control effect; nearly all actives have a fitted effect of over 50% in size; luciferase read-out
# Cruzain inh Det = qHTS Assay for Promiscuous and Specific Inhibitors of Cruzain (with detergent) | Cruzipain (Trypanosoma cruzi), P25779 | purified cruzain, Z-FR-AMC fluorescence, 0.01% Triton | Potency, µM, for the others: max response, negative = inhibition, usual class: inhibitors | 200,000 compounds, 0.43% hits; active means well fitted curve in the direction sought with a large enough effect; inconclusive means small, poorly fitted or top-dose-only effect, or another doubt; inactive means no such curve, though single readings can be large; an effect the other way counts as inactive or inconclusive;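 further: plate controls were neutral wells for no effect and buffer without enzyme for full effect; nearly all actives have a fitted effect of over 40% in size; top concentration of the series not given in the record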
# Target sequence (P25779 123-467 limits assumed): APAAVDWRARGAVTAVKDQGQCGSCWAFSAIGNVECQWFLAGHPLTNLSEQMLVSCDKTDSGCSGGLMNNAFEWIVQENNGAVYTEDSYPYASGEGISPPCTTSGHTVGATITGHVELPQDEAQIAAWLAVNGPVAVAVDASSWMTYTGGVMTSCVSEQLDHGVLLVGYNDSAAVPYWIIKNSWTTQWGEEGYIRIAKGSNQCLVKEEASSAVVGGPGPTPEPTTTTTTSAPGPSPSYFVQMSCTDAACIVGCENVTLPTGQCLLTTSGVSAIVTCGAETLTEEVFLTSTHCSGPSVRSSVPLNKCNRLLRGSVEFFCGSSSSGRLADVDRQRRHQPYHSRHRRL
#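 Cruzain (1.5 nM) preincubated 15 min at RT with compound in 100 mM sodium acetate pH 5.5, 5 mM DTT, 0.01% Triton X-100. Reaction started with 2 uM Z-FR-AMC; AMC fluorescence (ex 360/em 450 nm) change over 60 s gave rate.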
# StopGo reporter = High Throughput Screening for Foot and Mouth Disease Virus Antivirals; human cells with a luciferase reporter of 2A StopGo recoding; control for the full effect not named in the record; Potency, µM (highest dose often 57.9 µM), for the others: at the highest dose signal change, negative = less light; 410,000 compounds, 1.2% hits; AID 1159524, 2015; active = well fitted falling curve with a large enough effect; inconclusive = small, poorly fitted or top-dose-only effect; inactive = no such curve, though single readings can be large or run the other way; tested in HEK293T cells; further: on the % scale 0 is the no-effect control and ±100 the full control effect; nearly all actives have a fitted effect of over 45% in size; luciferase light after 4 h
# Cruzain inh noDet = qHTS Assay for Promiscuous and Specific Inhibitors of Cruzain (without detergent). 200,000 compounds, 2.3% hits. purified cruzain, Z-FR-AMC fluorescence, no detergent. Cruzipain (Trypanosoma cruzi), P25779. Potency, µM, for inactives: max response, negative = inhibition, usual class: inhibitors; active means well fitted curve in the direction sought with a large enough effect; inconclusive means small, poorly fitted or top-dose-only effect, or another doubt; inactive means no such curve, though single readings can be large; an effect the other way counts as inactive or inconclusive;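 further: plate controls were enzyme without inhibitor for no effect and buffer without enzyme for full effect; nearly all actives have a fitted effect of over 40% in size; top concentration of the series not given in the record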
#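 Detergent-free condition (0.00005% Triton X-100) in acetate buffer pH 5.5 with DTT. 1.5 nM enzyme and compound were pre-mixed 15 min, then 2 uM Z-FR-AMC substrate added; reaction progress from fluorescence change between first and third reads (60 s).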
# Starred values were filed as active, the others as inactive; ? = inconclusive; / = not tested or not shown; [ ] = remark or other dose. Unless noted, the call rests on the fitted dose curve; in most records, active means well fitted rising curve with a large enough effect; inconclusive means small, poorly fitted or top-dose-only effect; inactive means no such curve, though single readings can be large or run the other way. Potency means the concentration at half of the fitted maximal effect. No enrichment for hits (roughly 4.7% active in at least one column).
smiles,NS1 inh,Marburg entry inh,SARS PLP yeast,RE007 growth inh,Lassa entry inh,Cruzain inh Det,StopGo reporter,Cruzain inh noDet
CCN1C(=NCCOC)N[C@@H](c2cccs2)C(C(=O)OC)=C1C,2%,/,2%,6%,/,/,/,/
Cc1onc(-c2ccccc2Cl)c1C(=O)Nc1nc2c(s1)CCCC2,-12%,?,-5%,4%,?,-1.1%,22%,25µM*
CCCCc1nc2cc(C(=O)N3CCCCC3CCO)ccc2o1 (stereo not given),22%,2%,-2%,-5%,?,/,57%[activator],/
CCSc1ncc(Cl)c(C(=O)Nc2ccccc2F)n1,-3%,-2%,-6%,-11%,10%,/,-18%,/
O=C(Nc1cc(C(F)(F)F)ccc1Cl)c1cc(-c2ccc3c(c2)OCCO3)on1,/,0%[46.1 µM],/,/,-2%[46.1 µM],0.4%,6%,3%
O=S(=O)(Nc1cccc(-c2ccc3nncn3n2)c1)c1cccs1,/,7%[46.1 µM],-2%,-7%,-2%,/,4%,/
COC(=O)c1ccc(C2c3c(oc4cc(C)c(C)cc4c3=O)C(=O)N2c2ccccn2)cc1 (stereo not given),/,6%[46.1 µM],/,/,17%[46.1 µM],-0.3%,-9%,-4%
COc1ccc(NC(=O)Cc2ccsc2)cc1S(=O)(=O)N1CCCCC1,/,-25%,0%,7%,?,/,0%,/
O=C(CCSc1nnc(-c2ccc(O)cc2)o1)N1CCOCC1,/,3%,0%,10%,-13%,/,5%,/
CSc1ccc(CCNC(=O)CS(=O)(=O)Cc2nc(-c3ccccc3F)oc2C)cc1,5%,-4%[46.1 µM],4%,?,21%[46.1 µM],/,-25%,/
O=C(Nc1nnc(SCc2ccccn2)s1)C1CC(=O)N(c2ccc(F)cc2)C1 (stereo not given),22%,?,-2%,-6%,-3%,/,-21%,/
Cc1cccc(NC(=O)N2CCCC2C(=O)NCc2ccccc2)c1 (stereo not given),4%,/,5%,6%,/,/,-1%,/
COc1ccc(/C(N)=N/OC(=O)COc2ccccc2Cl)cc1,-3%,14%,-11%,20%,10%,-7.0%,48%[activator],-14%
Cc1sc2nc(C3CC3)nc(SCC(=O)N3CCc4ccccc4C3)c2c1C,5%,?,-12%,-2%,-15%,-5.6%,-10%,?
COc1ccc(C2=NN(C(=S)Nc3ccccc3)C(c3ccccc3)C2)cc1 (stereo not given),28%,18%,20%,-1%,-8%,-4.8%,6%,?
CCOc1ccc(CCNC(=O)CN2C(=O)COc3ccc(S(=O)(=O)N4CCCCCC4)cc32)cc1,/,-19%[46.1 µM],/,/,-12%[46.1 µM],-3.9%,-36%,9%
Cc1cc(N2CCCC2=O)ccc1S(=O)(=O)Nc1c(C)nn(C)c1C,2%,?,0%,-9%,?,/,?,/
CCCCn1c(CNC(=O)c2ccc(OC)cc2)nnc1SCC(=O)Nc1ccccc1,/,-4%[46.1 µM],/,/,-29%[46.1 µM],-2.2%,-5%,5%
O=S(=O)(c1ccc(F)cc1)N1CCN(C(=S)NCc2ccccc2)CC1,8%,-11%[46.1 µM],-1%,-1%,16%[46.1 µM],/,-5%,/
O=C(NNC(=O)c1ccncc1)Nc1ccccc1,-3%,-10%[46.1 µM],2%,-8%,-12%[46.1 µM],/,3%,/
CC(=O)Nc1cccc2ccc(O)cc12,/,4%[46.1 µM],/,5%,-5%[46.1 µM],/,-7%,/
CC(=O)NC(CC(=O)NNC(=O)C(C)Oc1ccccc1F)c1ccccc1 (stereo not given),/,1%,-1%,0%,10%,/,-8%,/
Cc1cccc(C)c1NC(=O)COC(=O)c1ccc([N+](=O)[O-])o1,-1%,-2%[46.1 µM],-17%,-7%,?,/,4%,/
O=[N+]([O-])c1ccc(NCc2ccccc2)c2nonc12,/,-2%[46.1 µM],-4%,-1%,-9%[46.1 µM],/,-11%,/
O=C(Nc1ccccc1)c1ccc(NC(=O)C2CC2)cc1,1%,21%[46.1 µM],-4%,4%,1%[46.1 µM],/,26%,/
COC(=O)CC(N)c1ccc(OC)c2ccccc12 (stereo not given),-3%,2%[46.1 µM],-1%,-7%,11%,1.3%,7%,0%
CC1=C(C(=O)Nc2ccccc2C)C(c2ccccc2)NC(=O)N1 (stereo not given),-6%,/,2%,4%,/,-0.4%,-21%,-6%
COc1ccc(NC(=O)c2ccc3nc(C)sc3c2)cc1,-32%,?,-3%,55%,-13%[46.1 µM],/,23%,/
COc1cc(C2NC(=O)N(C)C3=C2C(=O)N(c2ccccc2)C3)ccc1O (stereo not given),/,-27%[46.1 µM],/,/,-17%[46.1 µM],-1.8%,-18%,-11%
N#CC(C#N)=Cc1cn(-c2ncc(C(F)(F)F)cc2Cl)c2ccccc12,1%,2%[46.1 µM],-5%,-6%,-15%,-12%,-30%,-3%
C/C(=N\NS(=O)(=O)c1ccc([N+](=O)[O-])cc1)c1ccc2c(c1)OCO2,-8%,8%[46.1 µM],7%,17%,24%[46.1 µM],/,18%,/
CCNC(=O)C(=O)N/N=C/c1cc([N+](=O)[O-])ccc1O,/,?,-2%,-6%,-27%,/,-4%,/
CC(CCCC(C)(C)O)NC(=O)c1cc(COc2ccc3ncccc3c2)on1 (stereo not given),-6%,-9%[46.1 µM],0%,28%,?,/,?,/
COc1ccc(C(=O)CCC(=O)Nc2cccc(Cl)c2)cc1,/,2%[46.1 µM],0%,8%,-8%,/,-16%,/
CC(C)Cc1nc2oc3c(Cl)ncnc3c2c2c1CCC2,10%,?,1%,18%,?,-3.6%,1%,10%
COc1ccccc1CNC(=O)C1CCC(CNS(=O)(=O)c2ccc(NC(C)=O)cc2)CC1 (stereo not given),-8%,/,1%,12%,/,/,-13%,/
Cc1[nH]n2c(=O)c(C#N)c(-c3ccccc3)nc2c1-c1ccccc1,?,20%,5%,16%,-9%,5.3%,-4%,?
CC(=O)Nc1cccc(NC(=O)CSc2ccc(C(F)(F)F)cc2[N+](=O)[O-])c1,-18%,29%,13%,-12%,19%,-0.9%,13%,1%
CCOC(=O)c1cn(Cc2cccc(Cl)c2)c2cc(C)nn2c1=O,-2%,-4%,0%,-12%,5%,/,-15%,/
CCOc1ccc(C(=O)CCc2nc3ccccc3s2)cc1,-64%,-5%,-6%,5%,?,-4.2%,/,-6%
Cc1cc(=S)cc(C)n1CCCn1ccnc1,1%,14%,7%,-17%,21%,-1.4%,-19%,-4%
COC(=O)C(/C=N/OCc1ccc([N+](=O)[O-])cc1)NC(=O)c1cccc(Cl)c1 (stereo not given),-11%,0%,-16%,2%,7%,-3.7%,-2%,-5%
NS(=O)(=O)c1ccc(CCNC(=O)c2ccc(Cl)c(S(=O)(=O)N3CCCCC3)c2)cc1,/,?,-6%,-1%,/,/,45µM*,/
CC(NC(=O)CCn1nc(-c2ccc(Cl)cc2)ccc1=O)c1ccccc1 (stereo not given),/,17%[46.1 µM],-4%,-8%,-2%[46.1 µM],/,-4%,/
COc1cccc(-n2c(=O)c3c(C)c(C)sc3n(CC(=O)NCCc3ccc(OC)c(OC)c3)c2=O)c1,/,-10%[46.1 µM],/,/,11%[46.1 µM],-0.5%,-12%,?
COC(=O)c1c(NC(=O)COC(=O)CC(NC(C)=O)c2ccccc2)sc(C)c1C (stereo not given),/,6%,-8%,-6%,-2%[46.1 µM],/,-20%,/
Cc1ccccc1NC(=O)Cc1nnc(SCC(=O)Nc2ccccc2)n1C,-2%,/,1%,0%,/,/,0%,/
CN1C[C@@H]2C[C@@H](c3cccn3-c3nccs3)N3CCC[C@@]23C1=O,9%,-19%[46.1 µM],2%,-19%,?,/,1%,/
Cc1cc(C)c(NC(=O)C[N+](C)(C)CC(O)COc2cccc3ccccc23)c(C)c1 (stereo not given),/,-40%[46.1 µM],-3%,14%,14%[46.1 µM],/,3%,/
c1ccc2c(c1)OCCOCCOCCOCCOCCOc1ccccc1OCCOCCOCCO2,-35%,?,-14%,-5%,?,0.1%,?,?
CCNc1nc(NC(C)(C)C)nc(Oc2ccc(=O)n(C)n2)n1,/,11%[46.1 µM],/,/,10%[46.1 µM],-0.6%,3%,15%
CCOc1ccc(NC(=O)c2cc(=O)[nH]c3ccccc23)cc1,6%,3%,12%,-4%,?,/,2%,/
COc1ccc(S(=O)(=O)NCCC(C)C)cc1OC,?,6%,-4%,-14%,-2%,2.4%,/,5%
COc1ccc(C(=O)Nc2ccc(N3CCOCC3)c(C(F)(F)F)c2)cc1OC,/,4%[46.1 µM],/,/,-21%[46.1 µM],-7.4%,?,?
O=C(N/N=C/c1ccncc1)c1cc2ccccc2o1,-2%,?,-13%,-12%,15%,-4.4%,31%[activator],-5%
CC(C)(C)OC(=O)[C@H]1[C@H](c2ccc([N+](=O)[O-])cc2)C2(C(=O)c3ccccc3C2=O)C2c3ccccc3C=NN21 (stereo not given in full),1%,?,-14%,2%,-15%,-7.6%,-18%,?
O=C(Nc1ccc(-c2nc3ncccc3o2)cc1)c1ccc(Br)o1,-3%,-4%,-20%,-21%,?,-9.7%,-12%,26%
O=C(NC1CC(=O)N(c2cccc(F)c2)C1)N1CCN(C(=O)c2ccco2)CC1 (stereo not given),/,15%,0%,3%,0%,/,-15%,/
CCn1c(O)c(C=NC2CCCC2)sc1=S,-9%,?,-5%,-24%,10%,0.3%,11%,6%
Cc1cccc(C(C)C)c1NC(=O)CSc1cccc[n+]1[O-],/,19%,3%,2%,27%,/,-13%,/
O=C(O)CSCC(=O)Nc1ccc(Br)c(C(F)(F)F)c1,1%,-12%[14.2 µM],0%,0%,22%,/,-5%,/
CCN1CCN(S(=O)(=O)c2cc(C(=O)O)ccc2Cl)CC1,-2%,25%[46.1 µM],0%,39%,0%[46.1 µM],/,24%,/
CCOP(=O)(OCC)C(Nc1ccccc1)c1cc(OC)ccc1OC (stereo not given),1%,?,9%,/,0%,0.0%,-12%,?

# Source: PubChem BioAssay
